# LANA-H2A inh: blocks KSHV LANA binding to histone H2A/H2B; Q9QR71; cell-free LANA-H2A/H2B peptide, fluorescence polarization; inhibition, % (test concentration not listed); hit rate 0.6% among 320,000; AID 2629; in the data active = inhibition mostly above about 10%, no sharp cut-off; inactive = mostly below about 6.7%;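 note: stock transfer was 7.5 nL into about 10 µL; 0% = median of vehicle wells and 100% = median of positive control wells; one replicate is shown; the record names a cut of 25% in any replicate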
# Target sequence (Q9QR71 whole entry, looked up): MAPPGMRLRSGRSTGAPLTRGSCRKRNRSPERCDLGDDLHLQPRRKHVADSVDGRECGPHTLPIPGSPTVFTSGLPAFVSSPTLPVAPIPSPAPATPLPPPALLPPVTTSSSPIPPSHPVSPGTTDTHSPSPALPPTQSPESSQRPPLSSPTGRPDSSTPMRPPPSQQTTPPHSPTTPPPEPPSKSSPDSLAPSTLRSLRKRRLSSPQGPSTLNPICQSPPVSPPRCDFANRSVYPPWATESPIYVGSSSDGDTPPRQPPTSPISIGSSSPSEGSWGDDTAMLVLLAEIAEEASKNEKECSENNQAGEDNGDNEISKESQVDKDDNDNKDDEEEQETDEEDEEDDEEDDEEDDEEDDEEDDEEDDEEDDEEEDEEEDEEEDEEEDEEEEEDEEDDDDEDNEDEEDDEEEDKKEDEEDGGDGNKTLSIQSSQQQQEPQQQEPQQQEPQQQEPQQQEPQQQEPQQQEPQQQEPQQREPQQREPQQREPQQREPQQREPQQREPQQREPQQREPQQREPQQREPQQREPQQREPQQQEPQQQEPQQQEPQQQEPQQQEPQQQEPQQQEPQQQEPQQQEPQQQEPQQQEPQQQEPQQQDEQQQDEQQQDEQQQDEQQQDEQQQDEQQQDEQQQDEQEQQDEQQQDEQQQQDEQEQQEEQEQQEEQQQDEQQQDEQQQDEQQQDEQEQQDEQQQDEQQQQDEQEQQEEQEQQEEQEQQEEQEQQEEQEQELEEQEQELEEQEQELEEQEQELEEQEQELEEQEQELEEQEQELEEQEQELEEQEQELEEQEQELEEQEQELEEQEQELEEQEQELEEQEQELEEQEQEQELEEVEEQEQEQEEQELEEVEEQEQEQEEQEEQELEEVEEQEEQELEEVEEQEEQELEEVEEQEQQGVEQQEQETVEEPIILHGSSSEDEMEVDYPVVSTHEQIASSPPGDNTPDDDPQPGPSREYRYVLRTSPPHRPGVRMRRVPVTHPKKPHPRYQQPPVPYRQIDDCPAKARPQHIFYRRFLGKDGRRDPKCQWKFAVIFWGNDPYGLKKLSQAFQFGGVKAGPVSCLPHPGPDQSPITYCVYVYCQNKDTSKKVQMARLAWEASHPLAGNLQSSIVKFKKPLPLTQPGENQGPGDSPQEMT
# Calb FLC: affects C. albicans growth with fluconazole | C. albicans CaCi-2 (fluconazole-resistant clinical isolate) + fluconazole, Alamar Blue growth, 48 h | growth inhibition, % (no concentration beside the values) | hit rate 0.57% among 300,000 | AID 1979;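 active = most replicates above 75%; inconclusive = exactly half above 75%; inactive = most below 75%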;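 note: all wells also contain fluconazole at 8 µg/ml as a sub-toxic cotreatment; 0% = median of DMSO wells and 100% = median of geldanamycin control wells; wells of about 8 µL received 7.5 nL stock; the first replicate is given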
# Beta apoptosis: beta cell apoptosis inhibition; protection from apoptosis, % (no concentration beside the values); INS-1E cytokine-induced death, ATP luminescence, 48 h; percent of positive-control rescue, neutral wells zero; hit rate 0.8% among 300,000;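 active = all replicates at 75% or more, or half of them and the mean; inconclusive = half reach 75% but not the mean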;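 note: 0% = cytokine-treated negative control wells and 100% = positive control rescue; higher means more ATP so stronger rescue from cytokine killing; wells of about 40 µL received 100 nL stock; the first replicate is given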
# T cruzi repl: T. cruzi replication inhibition; inhibition, % (test concentration not listed); T. cruzi beta-gal in NIH3T3, luminescence, 90 h; hit rate 1.4% among 300,000;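 active = mean inhibition across valid replicates above about 55%, limit read from the data; inconclusive = mean below that limit but half or more replicates reach it; inactive = mean below it, under half of replicates reach it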;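 note: signal also drops with host cell toxicity which is not excluded here; 0% = plate median of DMSO wells and 100% = zero luminescence signal; higher percent means less beta-gal luminescence so fewer parasites; stock transfer was 50 nL into about 50 µL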
# Vif TR-FRET: inhibitors of Vif binding to APOBEC3G peptide, primary screen, biochemical, TR-FRET, GST-Vif 1-94, biotin-A3G peptide, dose response retest (AID 1117319); TR-FRET GST-Vif / biotin-A3G peptide binding; higher % means a stronger effect; test concentration not given here; strong numbers were not always called active; inhibition, %, or IC50 in µM where a hit was titrated; hit rate 0.57% among 260,000;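 active = above the screen mean plus three standard deviations and confirmed in dose response; inconclusive = results disagree or hit not tested in dose response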;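 note: Vif residues 1-94 fused to GST binding biotinylated APOBEC3G peptide 110-148; 0% = full assay without inhibitor and 100% = GST in place of GST-Vif; retest series ran down from 100 µM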
# AF4-AF9 inh: inhibitors of human MLL-AF4/AF9 interaction. P42568. AlphaScreen, biotin-AF4 peptide binding to FLAG-AF9. inhibition, % at 10 µM. hit rate 0.47% among 350,000. AID 651704;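 active = every replicate reaching a set inhibition limit, whatever the replicate mean, cut at about 25% in these data; inconclusive = mean inhibition reaches that limit but some replicates miss it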;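 note: 0% = plate neutral control median and 100% = total signal loss; the record names both 10 and 1 µM as test concentration; the first replicate is given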
# RanGTP-Impb inh: disruptors of Ran-importin-beta complex formation – biochemical, FRET, CFP-Ran, YFP-importin-beta, homogeneous, primary screen | cell-free CFP-Ran/YFP-importin-beta FRET ratio | inhibition, % (concentration not given with the values) | hit rate 1.1% among 300,000 | AID 2216;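 active = most replicates above 15%; inconclusive = exactly half above 15%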;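 note: 0% = DMSO wells and 100% = Ran loaded with GDP instead of GTP; wells of about 40 µL received 100 nL stock; the first replicate is given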
# A1 inh: inhibitors of the anti-apoptotic protein A1, read as caspase activation. hit rate 0.066% among 330,000. caspase activation, % (no concentration beside the values). MEF A1-2A-BIM cells, Caspase-Glo 3/7 luminescence, 3 h; percent of clofoctol response, vehicle zero;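 active = over half of replicate activation scores above 10%, or exactly half above 10 with the replicate mean above 10; inconclusive = replicate mean below 10 yet half the replicates above 10; inactive = over half of replicates below 10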;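 note: wells of about 30 µL received 50 nL stock; many hits fall short of the cut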
# * marks the source's active call; other numbers are inactive results; u = inconclusive; x = not tested or not shown.
# The first 2 entries (preview)
SMILES,LANA-H2A inh,Calb FLC,Beta apoptosis,T cruzi repl,Vif TR-FRET,AF4-AF9 inh,RanGTP-Impb inh,A1 inh
Clc1ccc(C(OCCN2CCCCC2)c2ccccc2)cc1 (centres undefined),-6.2,x,-3,x,x,6.2,x,0.4
CCN1CCN(c2nc3c(c(=O)[nH]2)CCCC3)CC1,0.2,-2,-3,-9,2%,x,-2.7,0.3

# The list itself (from the top)
SMILES,LANA-H2A inh,Calb FLC,Beta apoptosis,T cruzi repl,Vif TR-FRET,AF4-AF9 inh,RanGTP-Impb inh,A1 inh
Clc1ccc(C(OCCN2CCCCC2)c2ccccc2)cc1 (centres undefined),-6.2,x,-3,x,x,6.2,x,0.4
CCN1CCN(c2nc3c(c(=O)[nH]2)CCCC3)CC1,0.2,-2,-3,-9,2%,x,-2.7,0.3
CCOc1cc2c(cc1OCC)-n1cccc1C(c1cccc([N+](=O)[O-])c1)NC2 (centres undefined),-1.5,-9,-6,15,-1%,u,3.5,0.3
COC(=O)CCCNC(=O)CN1CC(c2ccccc2)CC1=O (centres undefined),-2.9,-33,4,-10,8%,x,1.1,-1.0
Cn1c(O)c(C=NC2CCN(Cc3ccccc3)CC2)c(=O)[nH]c1=O,0.2,-1,x,10,0%,-6.5,2.3,-0.2
COc1cc(CN=C(C)c2c(O)n(C)c(=O)n(C)c2=O)cc(OC)c1,3.3,30,-7,x,-3%,x,9.0,0.0
Cc1nc2ccccc2c(=O)n1-c1cccnc1,-3.5,-14,-5,-11,2%,x,-0.6,1.5
CCCCOc1ccc(C(C)=O)cc1Cc1c(O)[nH]c(=S)[nH]c1=O,0.8,7,1,-8,0%,3.0,-0.4,1.0
O=C(c1ccccc1F)N1CCC2(CC1)OCCO2,2.1,0,0,-8,-5%,-1.9,0.2,-0.2
O=C(NC1CN2CCC1CC2)c1cc(Cl)c([N+](=O)[O-])c2nc[nH]c12 (centres undefined),3.4,-3,-6,-8,2%,x,-2.4,0.1
CCOC(=O)c1c(C)n(C(C)C)c2ccc(OC(=O)c3ccc(N4C(=O)CCC4=O)cc3)cc12,-2.0,10,-4,-2,10%,2.0,3.1,-0.5
O=C1NC(=O)N(Cc2ccc(F)cc2)C(=O)/C1=C/c1cccs1,5.5,21,7,-6,x,-2.6,0.5,0.8
O=C1C(c2ccccc2)=C(N2CC2)c2ccccc21,-2.6,-1,6,x,-3%,x,-3.0,0.1
CN1C(=O)C(c2ccccc2)C(=O)N(C)C1=O,-0.4,-3,-5,3,x,1.8,-0.6,-0.7
CCc1nn(CC(=O)N2CCC3(CC2)OCCO3)c(=O)c2cccn12,-5.1,-8,-5,-13,x,1.3,5.4,0.1
Cc1ccc(CN2CCN(Cc3ccccc3)CC2)cc1,-0.7,-29,-1,59*,3%,-2.4,-1.9,-0.1
COC(=O)C1=C(c2cc3ccccc3o2)C[C@@H]2CC[C@H]1N2C(=O)NCc1ccco1,2.6,8,-2,-18,x,5.2,1.9,0.2
CCCCn1c(=O)c(C=Nc2ccc(Cl)cc2)c(O)n(Cc2ccco2)c1=O,5.3,2,6,-16,u,-2.8,u,-0.2
COc1ccc(OCC#CCN2CCC(C)CC2)cc1,-3.2,-17,-6,10,-4%,2.2,2.6,-1.2
O=C(Cc1ccccc1)OCC(=O)N1CCN(S(=O)(=O)c2ccc(Cl)cc2)CC1,-12,7,-5,-8,3%,-0.2,7.1,-0.5
O=C(C(=O)N1CCOCC1)c1cn(CCCOc2ccccc2)c2ccccc12,7.9,-20,-2,4,-4%,0.8,u,-0.1
CC(=O)O[C@@H]1/C=C/[C@](C)(O)C[C@@H](C)C/C=C/[C@H]2[C@H](O)[C@@](C)(O)[C@@H](C)[C@H]3[C@H](Cc4ccccc4)NC(=O)[C@@]312,1.1,-2,-3,-21,x,x,-0.3,0.0
c1ccc2nc(OCCN3CC3)ccc2c1,1.5,1,-2,6,-1%,5.9,7.9,1.2
CCOC(=O)CC(NC(=O)C(Cc1ccc(N(CCCl)CCCl)cc1)NC(C)=O)C(=O)OCC (centres undefined),-5.9,-18,17,-33,2%,2.7,-3.8,0.6
CCCOP(=O)(OCCC)C(NC(=O)c1ccccc1)=C(Cl)Cl,-2.8,5,-9,-19,12%,-54,0.5,0.6
CCC/C(=N\O)c1c[nH]c2ccccc12,-0.4,0,-5,-2,73%,x,1.8,-0.1
CN1CCN(c2ncnc3c2cnn3C)CC1,-0.9,-4,1,-21,x,x,1.2,1.0
O=c1[nH]c(=S)n(Cc2ccc(F)cc2)c(O)c1C=NCC1CCCO1 (centres undefined),5.1,12,-6,-5,-3%,x,7.9,0.1
COc1ccc(/C=C2\C(=O)NC(=S)N(C)C2=O)cc1C,2.5,17,-14,-31,u,0.9,4.4,0.4
COc1ccc2c(CCN)c[nH]c2c1,-1.2,-14,-8,-11,4%,x,-13,0.2
Cc1cccn2c(NCC3CCCO3)c(C(C)C)nc12 (centres undefined),2.6,-2,1,1,7%,x,-1.8,0.4
C=CC1CN2CCC1CC2C(OC(C)=O)c1ccnc2ccc(OC)cc12 (centres undefined),2.5,5,-9,11,2%,3.9,2.1,0.1

# Another view of some results above.
canonical_smiles	LANA-H2A inh	Calb FLC	Beta apoptosis	T cruzi repl	Vif TR-FRET	AF4-AF9 inh	RanGTP-Impb inh	A1 inh
O=C(Cc1ccccc1)OCC(=O)N1CCN(S(=O)(=O)c2ccc(Cl)cc2)CC1	-12	7	-5	-8	3%	-0.2	7.1	-0.5
O=C(C(=O)N1CCOCC1)c1cn(CCCOc2ccccc2)c2ccccc12	7.9	-20	-2	4	-4%	0.8	u	-0.1
CC(=O)O[C@@H]1/C=C/[C@](C)(O)C[C@@H](C)C/C=C/[C@H]2[C@H](O)[C@@](C)(O)[C@@H](C)[C@H]3[C@H](Cc4ccccc4)NC(=O)[C@@]312	1.1	-2	-3	-21	x	x	-0.3	0.0
c1ccc2nc(OCCN3CC3)ccc2c1	1.5	1	-2	6	-1%	5.9	7.9	1.2
CCOC(=O)CC(NC(=O)C(Cc1ccc(N(CCCl)CCCl)cc1)NC(C)=O)C(=O)OCC (centres undefined)	-5.9	-18	17	-33	2%	2.7	-3.8	0.6
CCCOP(=O)(OCCC)C(NC(=O)c1ccccc1)=C(Cl)Cl	-2.8	5	-9	-19	12%	-54	0.5	0.6
CCC/C(=N\O)c1c[nH]c2ccccc12	-0.4	0	-5	-2	73%	x	1.8	-0.1
CN1CCN(c2ncnc3c2cnn3C)CC1	-0.9	-4	1	-21	x	x	1.2	1.0
O=c1[nH]c(=S)n(Cc2ccc(F)cc2)c(O)c1C=NCC1CCCO1 (centres undefined)	5.1	12	-6	-5	-3%	x	7.9	0.1
COc1ccc(/C=C2\C(=O)NC(=S)N(C)C2=O)cc1C	2.5	17	-14	-31	u	0.9	4.4	0.4
COc1ccc2c(CCN)c[nH]c2c1	-1.2	-14	-8	-11	4%	x	-13	0.2
Cc1cccn2c(NCC3CCCO3)c(C(C)C)nc12 (centres undefined)	2.6	-2	1	1	7%	x	-1.8	0.4
C=CC1CN2CCC1CC2C(OC(C)=O)c1ccnc2ccc(OC)cc12 (centres undefined)	2.5	5	-9	11	2%	3.9	2.1	0.1

# Screens: PubChem, several laboratories

# A portion of the library, so the mix of outcomes need not match the whole.
